# Compound activity (PubChem BioAssay)
# BJeLR viability = kills HRASV12-expressing BJeLR cells; BJeLR (HRASV12) viability, CellTiter-Glo ATP luminescence, 48 h; reference of the scale not given here; inhibition, % (no concentration beside the values); 0.17% of 300,000 active; AID 1554;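 active means replicate mean above 50%; inconclusive means above 50% but judged a plate artefact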;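 further: 50 nL library stock added to about 25 µL; numbers are from one replicate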
# Mtb hypoxia rep = Mtb hypoxia fluorescent reporter inhibition; M. tuberculosis hypoxia-regulated fluorescent reporter, fluorescence; fluorescence inhibition, % (concentration not given with the values); 0.1% of 300,000 active;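 active means 35 to 45% if threefold the growth effect, above 45% if 1.5-fold the growth effect; inactive means the rest, general growth blockers included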;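 further: wells of about 50 µL received 100 nL stock; 0% = vehicle wells and 100% = reference inhibitor wells; whole bacteria with a GFP reporter of the hypoxia response; strong numbers were not always called active; many hits fall short of the cut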
# PrP 5UTR inh = suppresses PrP 5' UTR mRNA reporter expression. cell-based PrP 5' UTR mRNA reporter, plate reader. inhibition, % (concentration not given with the values). 0.35% of 340,000 active. AID 488862;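 active means every replicate at 50% or more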;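 further: 0 = median of the neutral control wells; tested in H4 reporter cells; numbers are from one replicate; inactives centre near -14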
# Bead autofluor = counter-screen for toxin protease inhibitors: compound fluorescence; compound autofluorescence counterscreen, microsphere flow cytometry; active compounds read high; fluorescence intensity (test concentration not listed); 3.1% of 360,000 active; AID 624483;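 active means at least 3 SD above the mean of all compounds, about 16000 in these data; inconclusive means too few beads counted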;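 further: 100 nL of 1 mM stock went into each well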
# RN4220 kill = S. aureus RN4220 growth inhibition; OD600, 16 h; inhibition, % (no concentration beside the values); 0.33% of 330,000 active;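 active means z-score of -3 or lower and OD600 up to 0.18 on both plates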;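 further: plate controls were untreated cells for no effect and reference antibiotic for full effect; stock transfer was 100 nL into about 80 µL; one replicate is shown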
# Sa ugtP lethal = growth inhibition of S. aureus ugtP deletion strain; S. aureus RN4220 ugtP deletion, OD600 growth, 16 h; some inactives read as strong as hits; 0.54% of 330,000 active; growth inhibition, % (no concentration beside the values);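 active means z-score under -3 and OD600 up to 0.15 on both plates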;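 further: plate controls were untreated wells for no effect and antibiotic for full effect; wells of about 80 µL received 100 nL stock; the first replicate is given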
# Mtb hypoxia rep growth = recorded beside Mtb hypoxia rep, whose call it bears; growth inhibition, %; measured here: M. tuberculosis growth (absorbance);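 0% = vehicle and 100% = reference antibiotic; read after six days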
# An asterisk follows results filed as active; ? = inconclusive; . = no result given.
SMILES,BJeLR viability,Mtb hypoxia rep,Mtb hypoxia rep growth,PrP 5UTR inh,Bead autofluor,RN4220 kill,Sa ugtP lethal
COc1ccc(-c2nc(CN3CCCCC3c3nccn3C)c(C)o2)c(C)c1C (stereo unspecified),5,-10,7,-21,5179,-3.6,2
Cc1c(CNCCc2ccccc2Cl)c(C(=O)O)c(C)n1-c1ccccc1,-10,-6,-1,-4,3885,-0.7,-6
CC(C)(C)c1ccc(C(=O)C2CCCN(C3CCC3)C2)cc1 (stereo unspecified),12,-11,0,-19,4950,-5.8,-3
O=C(NCCCn1ccnc1)c1ccc(S(=O)(=O)N2CCOCC2)cc1,-11,3,8,-15,3172,15,6
Cc1sc2ncnc(NCC(O)c3ccccc3)c2c1C (stereo unspecified),-9,12,2,-82,5659,2.2,4
CC(=O)CCc1ccc(OCCCOc2cccc3cccnc23)cc1,0,6,0,-27,3025,7.1,4
Cc1cccc(C(=O)N2CCCC(c3nc(-c4ccc(C)o4)no3)C2)c1 (stereo unspecified),-3,5,4,-50,5548,1.7,9
S=C(NCCCN1CCOCC1)N1CCN(c2ccccc2)CC1,4,10,-5,-19,3803,-0.2,6
CC1CCN(CCCNC(=O)CN2C(=O)CSc3ccc(S(=O)(=O)N4CCOCC4)cc32)CC1,9,5,-6,-6,5341,0.8,1
O=C(NCc1ccccc1)c1cccc(OCC(=O)N2CCN(C(=O)c3ccco3)CC2)c1,-1,7,2,-10,20088*,0.0,-9
CC(C)(C)c1n[nH]c(=S)n(N)c1=O,-3,-6,9,-33,9620,-0.2,-6
CC(CCc1ccccc1)NC(=O)c1cccs1 (stereo unspecified),-5,.,.,-13,7874,6.0,6
Cn1ncc2c(Nc3cccc(Cl)c3)nc(Nc3cccc(Cl)c3)nc21,1,.,.,-7,4160,.,.
COc1ccc2c(CC(=O)N3CCN(S(=O)(=O)c4cccs4)CC3)coc2c1,6,5,-1,-17,6793,3.9,8
C=CCn1c(CNC(=O)c2ccco2)nnc1SCC(=O)N1c2ccccc2Sc2ccccc21,-8,5,5,10,18468*,1.4,-1
Cc1ccc(C(=O)NC(=CCl)P(=O)(c2ccccc2)c2ccccc2)cc1,.,10,11,.,.,4.7,-1
Cc1cccc2cc(CN(C(=O)c3cccc([N+](=O)[O-])c3)C(C)C)c(=O)[nH]c12,0,-2,7,-12,3798,1.1,14
O=C1CC(/C=C/c2cccnc2)=Nc2ccccc2N1,-2,8,17,-27,3098,0.4,3
Cc1cc(C)c(NC(=O)/C=C\C(=O)O)c(Cl)c1,1,7,4,-17,2564,4.2,-4
N#CCOC(=O)/C=C/c1ccc2c(c1)OCO2,0,-1,8,-23,3854,2.8,5
CCC(CC)c1nc2cc(OC)c(OC)cc2c(=O)o1,-7,13,5,-22,4141,-1.5,-1
CC(NC(=O)Cn1nnc(-c2ccncc2)n1)c1ccccc1 (stereo unspecified),-2,2,8,.,.,5.6,5
COc1ccc(NS(=O)(=O)c2cccc(C(=O)NN=C(C)c3cccnc3)c2)cc1,.,-5,5,.,.,2.9,1
N#CCCn1cc(C(=O)O)c(-c2cccs2)n1,2,-13,5,-11,3129,2.6,1
COc1ccc(-c2c[n+]3c(n2-c2ccccc2)SCC3)cc1,14,-3,-4,-7,3999,-1.5,-4
Oc1c(Br)cc(/C=N/NC(=S)NCC2CCCO2)cc1Br (stereo unspecified),12,.,.,-30,5223,.,.
COc1ccc(C(CNC(=O)c2ccccc2C)N2CCCC2)cc1 (stereo unspecified),1,2,7,-19,9687,4.0,-9
O=C(Nc1cnccn1)c1ccc(Cl)cc1,-2,8,0,-35,3838,1.4,9
O=C(NCCN1CCOCC1)c1ccc(/C=C2\Sc3ccccc3N(Cc3ccc(F)cc3)C2=O)cc1,5,3,2,0,5281,3.2,5
Cc1ccc(-c2nn(-c3ccccc3)cc2C=NO)cc1,.,-11,-5,.,.,1.4,-1
COC(=O)/C=C1\S/C(=N/NC(=O)c2ccccc2)NC1=O,-9,11,17,-5,11133,0.6,-2
NC(=O)CCn1c(C(=O)c2cc(Cl)c(N)c(Cl)c2)c2ccccc2[n+]1[O-],4,2,1,-5,2975,11,10
O=C(O)c1ccc(/C=N/NC(=O)c2cc(-c3cccs3)nc3ccccc23)cc1,-18,.,.,-8,2055,.,.
Cc1ccc(N=C(N)N=C(N)N)cc1,-2,3,-4,-20,3731,3.5,7
CCOC(=O)c1c(-c2ccc(C)o2)csc1NC(=S)NC(=O)N(C)C,7,0,7,-14,18614*,4.7,-2
CCNc1nc(CN2CCOCC2)nc2sc3c(c12)CCC3,-4,.,.,-7,2831,0.4,-8

# Reprinted at random: 6 compounds from above.
SMILES,BJeLR viability,Mtb hypoxia rep,Mtb hypoxia rep growth,PrP 5UTR inh,Bead autofluor,RN4220 kill,Sa ugtP lethal
CCC(CC)c1nc2cc(OC)c(OC)cc2c(=O)o1,-7,13,5,-22,4141,-1.5,-1
CCOC(=O)c1c(-c2ccc(C)o2)csc1NC(=S)NC(=O)N(C)C,7,0,7,-14,18614*,4.7,-2
O=C(NCc1ccccc1)c1cccc(OCC(=O)N2CCN(C(=O)c3ccco3)CC2)c1,-1,7,2,-10,20088*,0.0,-9
COc1ccc2c(CC(=O)N3CCN(S(=O)(=O)c4cccs4)CC3)coc2c1,6,5,-1,-17,6793,3.9,8
N#CCCn1cc(C(=O)O)c(-c2cccs2)n1,2,-13,5,-11,3129,2.6,1
N#CCOC(=O)/C=C/c1ccc2c(c1)OCO2,0,-1,8,-23,3854,2.8,5

# Continuation:
SMILES,BJeLR viability,Mtb hypoxia rep,Mtb hypoxia rep growth,PrP 5UTR inh,Bead autofluor,RN4220 kill,Sa ugtP lethal
CCOC(=O)Cn1c(=O)oc2cc(S(=O)(=O)NCc3cccs3)ccc21,3,-1,10,-26,5861,-1.4,5
CC(=O)Nc1ccc(S(=O)(=O)NCc2nc(-c3cccc(C)c3)no2)cc1,-3,.,.,-22,8153,.,.
CN(Cc1ccccc1)C(=O)COC(=O)COc1ccc(Cl)cc1,.,17,4,-1,3060,0.4,-2
CCCOc1ccc(N2C(=O)CC(NCc3ccncc3)C2=O)cc1 (stereo unspecified),-3,.,.,-27,3300,-0.5,-3
COc1ccc(/C(N)=N/OC(=O)c2ccco2)cc1OC,-11,.,.,-74,3489,.,.
CC(C)CCNC(=O)c1cn(CC(C)C)c(=O)c2c1c1ccccc1n2C,-1,6,-1,-28,3498,6.1,15
CCCCNC(=O)C1CCC(CNc2nc(=S)[nH]c3ccccc23)CC1 (stereo unspecified),-8,11,2,-7,4295,19,-6
CSc1ccccc1NC(=O)CN(C)C(=O)COc1cccc2cccnc12,.,6,2,-26,3193,7.0,3
C=C(C)CNC(=S)Nc1cccc(N)n1,-6,12,7,-2,4393,8.7,8
Cc1nc2ccccc2n1Cc1ccc(Cl)cc1,6,0,3,-22,5790,2.0,-6
CCN(CC)C(=O)c1c(-c2ccccc2)oc2ccc(OC)cc12,-10,15,8,-14,2689,10,5
Cc1ccccc1-c1nc(CS(=O)(=O)CC(=O)NC2CCCCC2C)c(C)o1 (stereo unspecified),7,4,7,-38,5293,1.2,-10
C/C(=N\NC(=O)c1cc(C)[nH]n1)c1ccc(-c2ccccc2)cc1,-9,.,.,-19,6065,.,.
O=S(=O)(c1ccc(SCCOc2cccc(Br)c2)nc1)N1CCCC1,.,-3,3,-18,3812,-1.2,0
CCOC(=O)c1[nH]c2cc3c(cc2c1NC(=O)CN1CCc2ccccc2C1)OCO3,5,.,.,-4,2269,7.5,-8
O=C(O)Cn1nc(-c2ccccc2)ccc1=O,-5,-5,12,-4,3875,0.1,-2
COCCCn1c(SCC(=O)Nc2oc(C)c3c(C)n[nH]c(=O)c23)nc2sc3c(c2c1=O)CCC3,-1,0,-3,-16,?,4.4,8
CC(Sc1nnc(-c2ccncc2)n1C)C(=O)Nc1nccs1 (stereo unspecified),7,0,-9,-17,3760,-0.3,8
Cc1ccc(/C=N/NC(=O)C[n+]2ccccc2)s1,-1,.,.,-11,3879,.,.
O=C(Cc1cccs1)N(c1ccccc1)C1C=CS(=O)(=O)C1 (stereo unspecified),1,12,-3,-35,8822,6.8,12
O=C1C(=O)N(CCO)C(c2ccccc2[N+](=O)[O-])/C1=C(\O)c1ccccc1 (stereo unspecified),-1,3,-7,-18,3136,3.0,-1
CCOc1ccccc1-n1nnnc1SCC(=O)NCc1ccco1,-3,20,4,-13,3367,5.0,7
CS(=O)(=O)N(CC(=O)NC1CC2CCC1C2)c1ccc(Oc2ccccc2)cc1 (stereo unspecified),-4,4,2,-12,3326,-3.5,6
CC1CN(Cc2nc3c(c(=O)n(C)c(=O)n3C)n2CCCO)CC(C)O1 (stereo unspecified),4,-16,-7,-6,5898,-3.9,-11
Cc1ccc(SCC(=O)Nc2ncc(C)s2)cc1,-2,.,.,-27,3652,1.5,4
Cc1ccc(C2=NS(=O)(=O)N(C)C(C(=O)Nc3ccc4c(c3)OCO4)=C2)cc1,-2,.,.,4,5781,-0.3,-11
CCOC(=O)Cc1csc(N/N=C/c2cccc([N+](=O)[O-])c2)n1,-4,.,.,-4,2910,.,.
COc1cc(C)c(C(=O)Oc2cc(C)c(C(=O)O)c(O)c2C)c(O)c1C(=O)O,-7,.,.,-17,6090,2.0,-1
CCCn1c(SCC(=O)Nc2ccc(S(=O)(=O)N(C)C)cc2)n[nH]c1=O,2,14,1,10,4255,18,-62
Cc1ccc(C)c(NS(=O)(=O)c2cc(C(=O)NCC3CCCO3)ccc2C)c1 (stereo unspecified),3,-7,2,-4,5547,2.0,-2
CC1=C(C(=O)OCc2ccccc2)C(c2cccc(F)c2)NC(=O)N1 (stereo unspecified),-11,12,0,-25,4166,2.8,8
NC(=O)c1nsc(C(=O)N(c2ccccc2)C(C(=O)NC2CCCCC2)c2ccc(O)cc2)c1N (stereo unspecified),-3,13,-4,2,3265,2.3,-3
O=C(c1cc(COc2ccc(F)cc2Cl)on1)N1CCc2ccccc2C1,11,9,-9,22,4766,2.6,1
NS(=O)(=O)c1ccc(NC(=O)COC(=O)CCNC(=O)NC23CC4CC(CC(C4)C2)C3)cc1,-10,4,8,-8,3211,0.2,4
Cc1cccc(C)c1NC(=O)C1(NC(=O)c2cnccn2)CCCCC1,8,0,-1,-10,4321,-5.2,-6
COc1cc(OC)cc(C(=O)N2CCN(C(=O)COc3ccc4ccccc4c3)CC2)c1,3,1,3,-25,8434,-7.7,-21
Cc1ccn2c(C(=O)CSc3ccc(Cl)cc3Cl)c(C)nc2c1,2,.,.,5,2917,-0.2,6
CCCCOC(=O)NCN1C(=O)C2C3C=CC(C3)C2C1=O (stereo unspecified),-4,11,12,-29,3368,4.9,4
O=C(Nc1cc(Cl)cc(Cl)c1)N1CCCC1,4,20,12,-10,4869,91*,92
Cc1cccc(C(=O)Oc2ccc(/C=N/NC(=O)c3ccncc3)cc2)c1,1,.,.,-30,4277,.,.
O=C(C1CC1)N(Cc1ccco1)c1nc(-c2ccccc2)cs1,6,-2,-7,-15,23051*,-4.6,96*
CCn1c(SCC(=O)Nc2ccc(N3CCOCC3)cc2)nnc1-c1ccco1,2,-2,-9,-6,.,0.2,9
O=C(CNC(=O)c1cccs1)Nc1cccc(S(=O)(=O)N2CCOCC2)c1,.,3,-12,-20,4355,1.5,2
O=C(NCCN1CCN(C(=O)c2cccc(Br)c2)CC1)C(=O)Nc1ccc(Br)cc1,-4,3,6,-7,5607,-0.4,3
CN=C1SC(CC(=O)Nc2cccc(Cl)c2Cl)C(=O)N1C (stereo unspecified),-1,.,.,-12,4900,1.3,7
CS(=O)(=O)N(CC(=O)N1CCc2ccccc2C1)c1ccccc1F,5,6,14,.,.,2.6,1
CC(C)CSC1=NSC2=NC(=O)/C(=C\c3ccccc3)C(=N)N12,5,-8,2,-62,4277,0.6,-10
CC(=O)Nc1ccc(S(=O)(=O)N2CCN(C(=O)c3ncoc3-c3ccc(C)cc3)CC2)cc1,-4,-6,4,-4,3706,4.2,15
COc1ccccc1CNCCc1ccc(F)cc1,1,-3,-1,-13,2940,-2.2,0
O=C1[C@@H]2Cc3c([nH]c4ccccc34)CN2C(=O)CN1CCO,0,0,8,-10,3868,1.0,8
